A1 apoptosis 2 – A1 inhibitors via caspase activation, primary screen, cell-based, luminescence, HTS, two replicates; 24,000 tested, under 10 active; caspase activation, % (concentration not given with the values); MEF A1-2A-BIM cells, caspase-Glo luminescence, 3 h; percent of clofoctol response, DMSO zero; in the data active = caspase activation above about 5.9%;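 note: wells of about 30 µL received 50 nL stock; the first replicate is given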
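Evaluation: Caspase-3/7 activity from luminescence increase | Assay system: A1-2A-BIM mouse embryonic fibroblasts | Quantity: 2500 MEF cells/well | Medium: RPMI-1640 plus 10% FBS | Detection: Caspase-Glo 3/7 luminescence, 1 h at room temperature | Dosing: 50 nL compound per well, pinned | Timing: Cells settled overnight, compound exposure 3 h at 37 °C, 5% CO2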
* = called active by the depositor.

SMILES | A1 apoptosis 2
C[C@@H]1CCCCO[C@H](CN(C)C(=O)CCCN(C)C)[C@H](C)CN([C@H](C)CO)C(=O)c2cc(NC(=O)c3ccccc3)ccc2O1 | 0.3
C[C@@H]1CCCCO[C@@H](CN(C)CC2CC2)[C@H](C)CN([C@@H](C)CO)C(=O)c2cc(NC(=O)Nc3cccc4ccccc34)ccc2O1 | -0.2
COc1ccc(S(=O)(=O)N(C)C[C@@H]2Oc3c(NS(=O)(=O)c4ccc(C)cc4)cccc3C(=O)N([C@@H](C)CO)C[C@@H]2C)cc1 | 0.2
COc1ccc(NC(=O)N(C)C[C@@H]2Oc3ccc(NS(=O)(=O)c4ccc(OC)cc4)cc3C(=O)N([C@@H](C)CO)C[C@H]2C)cc1 | -1.0
C[C@H](CO)N1C[C@H](C)[C@@H](CN(C)S(=O)(=O)c2cccs2)Oc2ccc(N(C)C)cc2C1=O | 1.0
COc1ccc(NC(=O)Nc2ccc3c(c2)C(=O)N([C@H](C)CO)C[C@H](C)[C@@H](CN(C)C(=O)Nc2ccc(C(F)(F)F)cc2)O3)cc1 | 0.5
Cc1noc(C)c1NC(=O)Nc1cccc2c1O[C@H](CN(C)S(=O)(=O)c1ccc(F)cc1)[C@H](C)CN([C@@H](C)CO)C2=O | 1.7
C[C@H]1CN([C@@H](C)CO)C(=O)c2cccc(NC(=O)Nc3cccc4ccccc34)c2O[C@@H]1CN(C)C(=O)Nc1ccc(F)cc1 | 0.7
COc1ccc(NC(=O)N(C)C[C@H]2Oc3ccc(NC(=O)Cn4cnnn4)cc3CC(=O)N([C@@H](C)CO)C[C@@H]2C)cc1 | -1.6
CC(C)NC(=O)Nc1ccc2c(c1)CC(=O)N([C@@H](C)CO)C[C@@H](C)[C@@H](CN(C)Cc1ccc(Cl)c(Cl)c1)O2 | -0.2
CC(=O)n1cc([C@@H]2C=C(C(=O)N3CCN(Cc4ccccc4)CC3)O[C@H](OCCCCO)C2)c2ccccc21 | 0.7
C[C@@H]1CCCCO[C@H](CN(C)S(=O)(=O)c2cn(C)cn2)[C@@H](C)CN([C@H](C)CO)C(=O)c2cc(NS(C)(=O)=O)ccc2O1 | -1.7
Cc1ccc(S(=O)(=O)Nc2ccc3c(c2)C(=O)N([C@@H](C)CO)C[C@@H](C)[C@H](CN(C)Cc2ccncc2)OCCCC[C@@H](C)O3)cc1 | 0.5
C[C@@H]1CN([C@H](C)CO)C(=O)c2cc(NC(=O)C3CC3)ccc2O[C@H]1CN(C)C(=O)Nc1ccc2c(c1)OCO2 | -0.2
C[C@H](CO)N1C[C@H](C)[C@@H](CN(C)C)Oc2ccc(NC(=O)C3CC3)cc2C1=O | 0.0
C[C@H]1CCCCO[C@H](CN(C)S(=O)(=O)c2ccccc2)[C@@H](C)CN([C@@H](C)CO)C(=O)c2cc(NC(=O)Nc3ccc(C(F)(F)F)cc3)ccc2O1 | 0.8
C[C@H](CO)N1C[C@H](C)[C@@H](CN(C)C(=O)C2CCCCC2)OCCCC[C@H](C)Oc2ccc(NS(=O)(=O)c3ccccc3)cc2C1=O | -0.2
CNC[C@H]1Oc2ccc(NC(=O)Nc3ccc(OC)cc3)cc2C(=O)N([C@H](C)CO)C[C@H]1C | -0.6
CCCN(C)C[C@H]1OCCCC[C@@H](C)Oc2ccc(NC(=O)Cc3ccccc3)cc2C(=O)N([C@@H](C)CO)C[C@H]1C | -0.3
C[C@@H]1CN([C@H](C)CO)C(=O)c2cc(NC(=O)C3CCCCC3)ccc2O[C@@H](C)CCCCO[C@@H]1CN(C)C(=O)Nc1ccccc1 | -0.7
C[C@H](CO)N1C[C@H](C)[C@H](CN(C)S(=O)(=O)c2ccc(Oc3ccccc3)nc2)OCc2cn(nn2)CCCC1=O | 0.4
C[C@@H]1CN([C@@H](C)CO)C(=O)Cc2cc(NC(=O)CCN3CCOCC3)ccc2O[C@@H]1CN(C)Cc1ccc2c(c1)OCO2 | 0.6
C[C@@H]1CCCCO[C@@H](CN(C)C(=O)c2ccncc2)[C@@H](C)CN([C@@H](C)CO)C(=O)c2cc(NS(=O)(=O)c3ccc(F)cc3)ccc2O1 | 0.3
C[C@H]1CCCCO[C@@H](CN(C)C(=O)Nc2cccc3ccccc23)[C@@H](C)CN([C@@H](C)CO)C(=O)c2cc(NS(=O)(=O)c3ccccc3)ccc2O1 | -0.8
C/C(=N\O)C(=O)NCCCCCNC(=O)OCc1ccccc1 | 0.4
(listing goes on)
SMILES | A1 apoptosis 2
C[C@H]1CN([C@@H](C)CO)C(=O)Cc2cc(NS(=O)(=O)c3ccc(Cl)cc3)ccc2O[C@@H]1CN(C)C(=O)Nc1ccc(F)cc1 | 0.4
C[C@@H]1CN([C@@H](C)CO)C(=O)Cc2cc(NS(=O)(=O)c3ccc(Cl)cc3)ccc2O[C@@H]1CN(C)C(=O)Nc1ccc(C(F)(F)F)cc1 | -0.1
C[C@@H]1CN([C@H](C)CO)C(=O)Cc2cc(NC(=O)CCC(F)(F)F)ccc2O[C@H]1CN(C)CC1CC1 | 0.0
C[C@H]1CN([C@@H](C)CO)C(=O)Cc2cc(NC(=O)Nc3ccc(F)cc3)ccc2O[C@H]1CN(C)CC1CC1 | 0.7
C[C@@H]1CN([C@H](C)CO)C(=O)c2cccc(NS(=O)(=O)c3cccs3)c2O[C@H]1CN(C)CC1CC1 | -1.5
COc1ccc(/C=N/NC(=O)c2ccc(C(=O)NO)cc2)c(OC)c1 | 1.2
COC(=O)[C@@]1(Cc2ccccc2N=[N+]=[N-])N=C(c2ccc(OCCCO)cc2)O[C@H]1c1ccccc1 | -0.8
C[C@H](CO)N1C[C@H](C)[C@@H](CN(C)C(=O)Nc2ccc3c(c2)OCO3)Oc2c(NC(=O)C3CCCCC3)cccc2C1=O | -1.1
Cc1noc(C)c1NC(=O)Nc1cccc2c1O[C@H](CN(C)Cc1ccc(-c3ccccc3)cc1)[C@@H](C)CN([C@@H](C)CO)C2=O | -0.1
C[C@H]1CCCCO[C@@H](CN(C)Cc2ccc3c(c2)OCO3)[C@@H](C)CN([C@@H](C)CO)C(=O)c2cc(NS(=O)(=O)c3ccc(Cl)cc3)ccc2O1 | 0.5
Cc1noc(C)c1NC(=O)Nc1ccc2c(c1)C(=O)N([C@H](C)CO)C[C@H](C)[C@@H](CN(C)C(=O)Nc1c(C)noc1C)O2 | -0.8
CC(C)NC(=O)N(C)C[C@@H]1OCCCC[C@H](C)Oc2ccc(NC(=O)CCC(F)(F)F)cc2C(=O)N([C@H](C)CO)C[C@@H]1C | 0.1
C[C@H]1CN([C@@H](C)CO)C(=O)c2cc(NC(=O)Cc3ccccc3)ccc2O[C@@H]1CN(C)CC1CC1 | -0.4
Cc1ccc(S(=O)(=O)Nc2ccc3c(c2)C(=O)N([C@@H](C)CO)C[C@@H](C)[C@H](CN(C)C(=O)NC2CCCCC2)OCCCC[C@@H](C)O3)cc1 | -1.0
C[C@@H]1CN([C@H](C)CO)C(=O)c2cc(NS(=O)(=O)c3cccs3)ccc2O[C@@H]1CN(C)C | 0.1
C[C@@H]1CN([C@H](C)CO)C(=O)Cc2cc(NS(=O)(=O)c3cn(C)cn3)ccc2O[C@H]1CN(C)C(=O)Nc1ccc(F)cc1 | -0.1
Cc1ccc(S(=O)(=O)N(C)C[C@H]2OCCCC[C@@H](C)Oc3ccc(NC(=O)Nc4cccc5ccccc45)cc3C(=O)N([C@@H](C)CO)C[C@@H]2C)cc1 | 2.1
C[C@@H]1CN([C@H](C)CO)C(=O)c2cccc(NS(=O)(=O)c3ccc(Cl)cc3)c2O[C@H]1CN(C)Cc1ccc(C(F)(F)F)cc1 | -0.4
Cc1noc(C)c1NC(=O)N(C)C[C@@H]1Oc2ccc(NS(=O)(=O)c3cccs3)cc2C(=O)N([C@H](C)CO)C[C@@H]1C | -0.2
C[C@@H]1CN([C@@H](C)CO)C(=O)Cc2cc(NC(=O)Nc3ccc(F)cc3)ccc2O[C@@H]1CN(C)Cc1ccncc1 | -0.2
C[C@@H]1CN([C@@H](C)CO)C(=O)c2cc(NC(=O)NC3CCCCC3)ccc2O[C@@H]1CN(C)C(=O)Nc1ccc2c(c1)OCO2 | -0.1
Cc1noc(C)c1NC(=O)N(C)C[C@H]1Oc2c(NC(=O)Nc3ccc4c(c3)OCO4)cccc2C(=O)N([C@@H](C)CO)C[C@H]1C | 0.0
Cc1noc(C)c1S(=O)(=O)N(C)C[C@H]1OCCCC[C@H](C)Oc2ccc(NC(=O)Nc3ccc(C(F)(F)F)cc3)cc2C(=O)N([C@@H](C)CO)C[C@@H]1C | -0.5
COc1ccc(NC(=O)N(C)C[C@H]2Oc3ccc(NC(=O)NC4CCCCC4)cc3CC(=O)N([C@@H](C)CO)C[C@@H]2C)cc1 | 0.3
C[C@@H]1CN([C@@H](C)CO)C(=O)Cc2cc(NC(=O)Cc3cn(C)c4ccccc34)ccc2O[C@H]1CN(C)Cc1ccc2c(c1)OCO2 | 0.5
More structures
SMILES | A1 apoptosis 2
Cc1ccc(S(=O)(=O)Nc2ccc3c(c2)CC(=O)N([C@H](C)CO)C[C@@H](C)[C@@H](CN(C)Cc2ccncc2)O3)cc1 | 2.7
Cc1noc(C)c1NC(=O)N(C)C[C@@H]1Oc2c(NC(=O)C3CCOCC3)cccc2C(=O)N([C@@H](C)CO)C[C@@H]1C | 0.3
C[C@@H]1CN([C@@H](C)CO)C(=O)Cc2cc(NC(=O)Cc3cn(C)c4ccccc34)ccc2O[C@@H]1CN(C)Cc1ccc(-c2ccccc2)cc1 | -0.4
C[C@@H]1CN([C@H](C)CO)C(=O)CCCn2nncc2CO[C@@H]1CN(C)Cc1ccc(C(=O)O)cc1 | -1.6
CC(C)NC(=O)N(C)C[C@H]1OCCCC[C@@H](C)Oc2ccc(NC(=O)NC3CCCCC3)cc2C(=O)N([C@@H](C)CO)C[C@H]1C | -1.6
C[C@@H]1CN([C@@H](C)CO)C(=O)Cc2cc(NC(=O)Cc3ccccc3)ccc2O[C@@H]1CN(C)Cc1ccncc1 | -0.7
Cc1ccc(S(=O)(=O)N(C)C[C@@H]2OCCCC[C@@H](C)Oc3ccc(NC(=O)NC(C)C)cc3C(=O)N([C@@H](C)CO)C[C@@H]2C)cc1 | 0.8
C[C@H](CO)N1C[C@H](C)[C@H](CN(C)C(=O)Nc2ccccc2)Oc2ccc(NC(=O)NC3CCCCC3)cc2CC1=O | -0.7
CNC[C@@H]1Oc2c(NC(=O)c3cc(C)nn3C)cccc2C(=O)N([C@@H](C)CO)C[C@H]1C | 0.2
C[C@H]1CCCCO[C@H](CN(C)Cc2ccc(C(F)(F)F)cc2)[C@@H](C)CN([C@@H](C)CO)C(=O)c2cc(NS(=O)(=O)c3ccc(Cl)cc3)ccc2O1 | -0.5
Cc1ccccc1S(=O)(=O)N(C)C[C@@H]1OCc2cn(nn2)CCCC(=O)N([C@H](C)CO)C[C@H]1C | 0.0
C[C@@H]1CN([C@@H](C)CO)C(=O)c2cc(NC(=O)Nc3ccc4c(c3)OCO4)ccc2O[C@@H]1CN(C)S(=O)(=O)c1ccc(F)cc1 | -1.0
Cc1noc(C)c1NC(=O)N(C)C[C@@H]1Oc2ccc(NC(=O)CCCCCC(=O)Nc3ccccc3N)cc2C(=O)N([C@@H](C)CO)C[C@H]1C | 0.9
Cc1ccc(S(=O)(=O)Nc2cccc3c2O[C@@H](CN(C)Cc2ccc(Oc4ccccc4)cc2)[C@@H](C)CN([C@H](C)CO)C3=O)cc1 | 0.1
COC(=O)c1ccc([C@H]2C=C(C(=O)N3CCN(Cc4ccc5c(c4)OCO5)CC3)O[C@@H](OCc3ccc(CO)cc3)C2)cc1 | -0.4
CCn1c2ccccc2c2cc(/C=N/NC(=O)c3ccccc3O)ccc21 | 1.0
Cc1ccc(S(=O)(=O)N(C)C[C@@H]2Oc3ccc(NC(=O)Nc4ccccc4)cc3CC(=O)N([C@@H](C)CO)C[C@H]2C)cc1 | 1.2
Cn1cc(/C=N/NC(=O)c2ccccn2)c2ccccc21 | -1.2
C[C@H]1CCCCO[C@@H](CN(C)C(=O)C2CCCCC2)[C@@H](C)CN([C@@H](C)CO)C(=O)c2cc(NS(=O)(=O)c3ccccc3)ccc2O1 | -0.3
C[C@@H]1CCCCO[C@@H](CN(C)C(=O)C2CCCCC2)[C@H](C)CN([C@H](C)CO)C(=O)c2cc(NS(=O)(=O)c3ccc(Cl)cc3)ccc2O1 | 0.8
COc1ccc(CN(C)C[C@H]2Oc3c(NS(=O)(=O)c4cccs4)cccc3C(=O)N([C@H](C)CO)C[C@@H]2C)cc1 | 1.3

A second format for part of the listing above.
| Compound | A1 apoptosis 2 |
| --- | --- |
| C[C@@H]1CCCCO[C@@H](CN(C)C(=O)C2CCCCC2)[C@H](C)CN([C@H](C)CO)C(=O)c2cc(NS(=O)(=O)c3ccc(Cl)cc3)ccc2O1 | 0.8 |
| C[C@H]1CCCCO[C@@H](CN(C)C(=O)C2CCCCC2)[C@@H](C)CN([C@@H](C)CO)C(=O)c2cc(NS(=O)(=O)c3ccccc3)ccc2O1 | -0.3 |

Reformatted as labelled records: entries from further up.
Cc1ccc(S(=O)(=O)Nc2ccc3c(c2)CC(=O)N([C@H](C)CO)C[C@@H](C)[C@@H](CN(C)Cc2ccncc2)O3)cc1
  A1 apoptosis 2: 2.7

Cc1ccc(S(=O)(=O)N(C)C[C@@H]2Oc3ccc(NC(=O)Nc4ccccc4)cc3CC(=O)N([C@@H](C)CO)C[C@H]2C)cc1
  A1 apoptosis 2: 1.2

Cn1cc(/C=N/NC(=O)c2ccccn2)c2ccccc21
  A1 apoptosis 2: -1.2

C[C@@H]1CN([C@@H](C)CO)C(=O)Cc2cc(NC(=O)Cc3cn(C)c4ccccc34)ccc2O[C@@H]1CN(C)Cc1ccc(-c2ccccc2)cc1
  A1 apoptosis 2: -0.4

Not all compounds are listed, so the mix of outcomes need not match the whole.
